Screening results (PubChem)
Six1-Eya2 blk = qHTS Assay for Inhibitors of the Six1/Eya2 Interaction; AlphaScreen GST-Six1/His-Eya2 binding, biochemical; hits give low values; control for the full effect not named in the record; activity change, % (test concentration not listed); 360,000 tested, 0.56% active; in the data active = activity change below about -65%; inconclusive = about -30% to -65%; inactive = above about -30%; also: % is scaled to controls: 0 for no effect and ±100 for the full control effect; compound concentration not given in the record
Target sequence (O00167 whole entry, looked up): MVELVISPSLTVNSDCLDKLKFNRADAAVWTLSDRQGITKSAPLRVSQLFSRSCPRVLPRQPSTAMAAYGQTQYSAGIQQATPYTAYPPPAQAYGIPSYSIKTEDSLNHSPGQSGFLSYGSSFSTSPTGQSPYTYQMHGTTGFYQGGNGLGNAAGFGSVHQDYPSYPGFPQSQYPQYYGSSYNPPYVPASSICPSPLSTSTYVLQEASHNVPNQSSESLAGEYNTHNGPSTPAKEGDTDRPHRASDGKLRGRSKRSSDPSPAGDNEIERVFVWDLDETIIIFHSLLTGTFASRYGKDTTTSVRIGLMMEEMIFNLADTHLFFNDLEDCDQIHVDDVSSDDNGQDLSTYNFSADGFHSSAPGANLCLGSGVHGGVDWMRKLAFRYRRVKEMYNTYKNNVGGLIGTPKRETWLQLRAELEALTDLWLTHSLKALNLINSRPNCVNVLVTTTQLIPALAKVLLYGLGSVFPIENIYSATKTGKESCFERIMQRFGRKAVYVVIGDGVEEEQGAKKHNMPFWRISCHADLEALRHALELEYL
Target sequence (Q15475 whole entry, looked up): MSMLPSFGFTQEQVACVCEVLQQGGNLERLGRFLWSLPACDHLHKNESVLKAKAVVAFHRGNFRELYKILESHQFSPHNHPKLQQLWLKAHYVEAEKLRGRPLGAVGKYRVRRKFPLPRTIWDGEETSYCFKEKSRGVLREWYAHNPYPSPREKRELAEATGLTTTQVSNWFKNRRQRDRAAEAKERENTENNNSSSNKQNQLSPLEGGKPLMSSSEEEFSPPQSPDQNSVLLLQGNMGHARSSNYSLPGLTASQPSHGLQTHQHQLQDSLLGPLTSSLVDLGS
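AlphaScreen luminescence read after one hour at 37 °C in darkness. Pin-transferred compounds met GST-Six1 and His-Eya2 protein (5X stock 250 nM/500 nM) plus glutathione donor and Ni-chelate acceptor beads (5X, 50 ug/mL).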
TRPML1 agonist = qHTS for Agonists of the Human Mucolipin Transient Receptor Potential 1 (TRPML1); Mucolipin-1 (Homo sapiens), Q9GZU1; 410,000 tested, 0.12% active; activation, % (concentration not given with the values); TRPML1-expressing cells, Ca2+ dye fluorescence, FDSS; host cell line not named in the record; reference of the full effect not given here; in the data active = activation above about 50%; inconclusive = about 30% to 50%; inactive = below about 30%; also: 0% is about no effect; the text of the record puts the active cut at 80%
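TRPML1-DL cells, Tet-induced overnight (~16 h, 37 degrees C), loaded 45-90 min at room temperature with Ca8 no-wash calcium dye plus quencher. FDSS fluorescence: 10 s baseline, compound pin-transfer, 110 s agonist read, then EC80 54-4 (4uM final) and 110 s antagonist read.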
TRPV1 PAM = HTS Assay for Compounds that Act as Potentiators of the Vanilloid Receptor 1; potentiation, % at 8.33 µM; Transient receptor potential cation channel subfamily V member 1 (Homo sapiens), Q8NER1; TRPV1-expressing cells, Fluo-8 calcium influx, capsaicin EC20 potentiation; host cell line not named in the record; control for the full effect not named in the record; 320,000 tested, 0.02% active; active means potentiation above 80%; inconclusive means 30% to 80%; inactive means below 30%; also: 0% is about no effect
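Fluo-8 calcium influx in TRPV1-expressing cells, kinetic read (ex 480/em 520 nm). Compound added and read 3 min for agonist activity, followed by capsaicin at EC20 final and 2 min further read for enhancement.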
TRPML1 inh = qHTS for Inhibitors of the Human Mucolipin Transient Receptor Potential 1 (TRPML1). Mucolipin-1 (Homo sapiens), Q9GZU1. TRPML1-inducible cells, Ca2+ dye fluorescence, FDSS; hits give low values; inhibition of EC80 agonist-evoked calcium signal. activity change, negative = inhibition, % (no concentration beside the values). 390,000 tested, 0.02% active. AID 624415, 2012; in the data active means activity change below about -50%; inconclusive means about -30% to -50%; inactive means above about -30%;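 also: stimulus is agonist 54-4 at its EC80 concentration; % is scaled to controls: 0 for no effect and ±100 for the full control effect; compound concentration not given in the record; the text of the record puts the active cut at -80%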
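Tet-induced TRPML1-DL cells loaded with Ca8 no-wash calcium dye were read kinetically on FDSS. Compound addition was followed by EC80 agonist 54-4 (4 uM final); inhibition was read over 110 s.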
D2 PAM = Beta-Arrestin HTS for Positive Allosteric Modulators of the Human D2 Dopamine Receptor: Potentiators | potentiation, % (concentration not given with the values) | AID 624464, 2012 | DiscoveRx D2 beta-arrestin cells, luminescence, 90 min; 100% = 57 uM dopamine signal | 360,000 tested, 0.23% active | D(2) dopamine receptor (Homo sapiens), P14416; active = potentiation of 50% or more; inconclusive = 30% to 50%; inactive = 30% or less;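 also: compound concentration not given in the record; tested on top of an EC20 dose of dopamine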
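PathHunter D2 cells, attached overnight at 37 deg C, received compound in DMSO plus dopamine at EC20 (50 nM final) for 90 min at 37 deg C. Beta-arrestin recruitment was read as luminescence after 1 h with detection reagent at ambient temperature.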
CtBP-E1A blk = qHTS Assay for Inhibitors of the CtBP/E1A Interaction; CtBP / adenovirus E1A interaction (AlphaScreen); AlphaScreen GST-E1A/His-CtBP binding, 1536-well; hits give low values; control for the full effect not named in the record; activity change, % (concentration not given with the values); 340,000 tested, 0.49% active; AID 651724, 2012; in the data active means activity change below about -65%; inconclusive means about -30% to -65%; inactive means above about -30%; also: % is scaled to controls: 0 for no effect and ±100 for the full control effect
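Protein mix (5X: 125 nM each GST-E1A, His-CtBP) was incubated with pinned compound 2 h at 37 deg C in dark, in 50 mM Tris pH 8.0 buffer with 300 mM NaCl. Glutathione donor and nickel acceptor beads followed; AlphaScreen signal read after 1 h.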
An asterisk follows results filed as active; ? = inconclusive; . = not tested or not shown. Not a hit list. Share with any hit: about 0.95%.

| entry | Molecule | Six1-Eya2 blk | TRPML1 agonist | TRPV1 PAM | TRPML1 inh | D2 PAM | CtBP-E1A blk |
| --- | --- | --- | --- | --- | --- | --- | --- |
| 1 | COc1ccccc1N1CCN(C(c2cc3ccc(C)cc3[nH]c2=O)c2nnnn2C2CCCC2)CC1 (stereo not given) | 0 | 3.1 | 5 | -16 | -16 | -8 |
| 2 | Cn1cc(S(=O)(=O)Nc2ccc(F)c(Cl)c2)c(=O)n(C)c1=O | 3 | -0.1 | -1 | -14 | -6 | 9 |
| 3 | COC(=O)c1ccc2nc(NC(=O)CSCC(=O)OCC(=O)c3ccccc3)sc2c1 | 1 | 0.0 | 5 | 38 | -34 | -7 |
| 4 | c1ccc(-c2nnc3oc(-c4cccs4)nn23)cc1 | -5 | 0.0 | . | -7 | -8 | 3 |
| 5 | CN=C(N)NCCC[C@H](N)C(=O)O | 3 | 0.2 | -13 | -9 | -4 | -20 |
| 6 | O=C(CCc1nc2ccccc2c(=O)[nH]1)N1CCN(S(=O)(=O)c2cccc([N+](=O)[O-])c2)CC1 | 8 | 0.1 | -3 | -15 | 3 | -6 |
| 7 | C=CCNC(=O)[C@H]1N2C(=O)c3ccccc3C2SC1(C)C (stereo not given in full) | 11 | 1.1 | -2 | -7 | -4 | 2 |
| 8 | Cc1nn(C)c2ncc(C(=O)c3cc(F)ccc3O)cc12 | -5 | -0.7 | 9 | 9 | 16 | 13 |
| 9 | O=C(NCC(c1cccs1)N1CCOCC1)c1cc([N+](=O)[O-])ccc1Cl (stereo not given) | -9 | -0.6 | -10 | 11 | 0 | 0 |
| 10 | O=C(N/N=C/C=C/c1ccco1)C(O)c1ccccc1 (stereo not given) | -7 | 0.6 | . | -12 | -6 | 0 |
| 11 | CC1=CS(=O)(=O)CC1Sc1ncn[nH]1 (stereo not given) | 9 | 0.1 | 1 | 18 | 8 | -4 |
| 12 | CC(C)(C)NNC(=S)Nc1ccc(S(=O)(=O)N2CCOCC2)cc1 | 2 | 0.7 | 11 | 15 | -9 | 3 |
| 13 | COCCNC(=O)C1(C)Cc2c(-c3ccc(N(C)C)cc3)ccnc2O1 (stereo not given) | -5 | -0.8 | . | . | -4 | 5 |
| 14 | Fc1cccc(Cl)c1CSc1ncn[nH]1 | -12 | -1.1 | -6 | 95 | 2 | -11 |
| 15 | Cc1ccc(OC(C)C(=O)N(Cc2cccs2)C2CCS(=O)(=O)C2)cc1C (stereo not given) | 17 | 0.4 | -11 | 3 | 1 | -11 |
| 16 | CCN(CC)CCOC(=O)c1ccc(NC(=O)c2cn(-c3ccccc3)nc2-c2cccs2)cc1 | -5 | 0.4 | 15 | -12 | -11 | -14 |
| 17 | CCn1c(-c2ccccc2Cl)nn(CC(=O)Nc2ccc(OC)cc2)c1=S | 14 | -0.1 | 13 | 7 | -4 | 0 |
| 18 | CC(O)c1ccc(OCCN(C)c2ccccn2)cc1 (stereo not given) | 6 | -1.0 | 27 | -8 | -5 | 0 |
| 19 | O=C(CSc1ccccc1)Nc1ccc(N2CCN(c3ccccc3)CC2)c(F)c1 | 8 | 0.6 | 1 | 3 | -2 | -1 |
| 20 | CCN(CC)S(=O)(=O)c1cc(C(=O)Nc2ccccc2C(=O)O)ccc1OC | -25 | 1.6 | ? | -3 | -10 | -3 |
| 21 | COc1ccc(CCNC(=O)C2CCCN2C(=O)Nc2ccccc2)cc1OC (stereo not given) | -2 | -0.9 | -16 | -20 | -2 | . |
| 22 | COC(=O)c1ccc(NC(=O)CCN2CCN(CCC(=O)Nc3ccc(C(=O)OC)cc3)CC2)cc1 | -10 | 0.0 | -4 | 8 | -2 | -5 |
| 23 | CN(Cc1cccs1)C(=O)CSc1nnnn1C | -3 | -0.9 | 8 | 15 | -9 | -4 |
| 24 | C=CCN(C(=O)CCC(=O)Nc1cc(C)on1)C(C(=O)NC1CCCC1)c1ccc(Cl)cc1 (stereo not given) | 4 | -0.8 | 8 | -22 | -4 | 3 |
| 25 | O=C1C(Cc2ccccc2)Nc2ncnc(N3CCc4ccccc4C3)c2N1Cc1ccccc1 (stereo not given) | -8 | -0.4 | . | -11 | -8 | . |
| 26 | CC(=O)N=c1sc2nc3ccccc3nc2n1N(C(C)=O)C(C)=O | ? | 0.2 | 2 | -16 | -9 | ? |
| 27 | O=C(CCc1ccc(S(=O)(=O)NC2CCCCC2)cc1)Nc1ccccc1 | 5 | -0.4 | -9 | 1 | -11 | 8 |
| 28 | CC(C)N1CCC(NC(=O)NC2CCCCC2)CC1 | -3 | -0.3 | 3 | 13 | -5 | 2 |
| 29 | O=C(O)c1cc2cc(Cl)ccc2oc1=O | 3 | 0.4 | 7 | -6 | -8 | -1 |
| 30 | CC(=O)NCCNc1nc2c(-c3cccc(C)c3)nnn2c2ccccc12 | -6 | -0.6 | -15 | -5 | 0 | . |
| 31 | C=CCNc1nc(C)c(CNc2c(C)cc(C)cc2C)nc1C#N | -15 | 1.2 | -27 | 5 | 0 | 7 |
| 32 | COc1ccccc1NC(=O)CSc1ccc(-c2ccc(-n3ccnc3)cc2)nn1 | ? | 1.1 | 2 | 15 | -1 | -5 |
| 33 | CCn1c(-c2ccccc2SC)n[nH]c1=S | 0 | -0.2 | -19 | -7 | -56 | 18 |
| 34 | CCS(=O)(=O)N1Cc2ccccc2CC1C(=O)Nc1ccc(F)c(F)c1F (stereo not given) | 3 | -0.5 | 5 | 16 | -4 | . |
| 35 | COc1ccccc1Nc1nc(NCc2ccco2)nc(N)c1[N+](=O)[O-] | -7 | 0.7 | . | 2 | -1 | -7 |
| 36 | O=C(C1=NOC2(C1)C(=O)Nc1ccccc12)N1CCOCC1 (stereo not given) | 22 | 0.0 | . | . | . | 0 |
| 37 | CCNC(=S)NNC(=O)c1cc(C)nc2ccccc12 | 1 | 1.1 | 2 | -1 | -45 | -6 |
| 38 | CCOc1ccc(CCNC(=O)c2cc(S(=O)(=O)N3CCOCC3)ccc2C)cc1OCC | -1 | -0.9 | 10 | 8 | 4 | 3 |
| 39 | Nc1ccccc1SCC(=O)Nc1ccc2c(c1)OCCO2 | -8 | -0.3 | 2 | ? | -7 | 2 |
| 40 | Cc1nn(Cc2ccccc2)c(C)c1NC(=O)CCCn1nc([N+](=O)[O-])c(Cl)c1C | 12 | 0.5 | -3 | -21 | -3 | -5 |
| 41 | CC(=O)NC(c1ccc(F)c(F)c1)c1nc(-c2cccc(C(C)C)c2)cs1 (stereo not given) | -3 | 0.5 | . | . | -2 | 9 |
| 42 | Clc1ccccc1/C=N/N1CCN(Cc2ccccc2)CC1 | -25 | 0.7 | -17 | 8 | -6 | -22 |
| 43 | CN(C)S(=O)(=O)c1cccc(NC(=S)N2CCc3ccccc32)c1 | 0 | 1.8 | 2 | 2 | 9 | -5 |
| 44 | N#Cc1ccc(CSc2nnc3[nH]c(=O)cc(N)n23)cc1 | -9 | 0.4 | 4 | -19 | 12 | -19 |
| 45 | CCOC(=O)c1cnc2ccccc2c1NCCO | 8 | -0.3 | -6 | -9 | 3 | -1 |
| 46 | CC1(C(=O)NS(=O)(=O)c2cccc(OC(F)F)c2)CCN1C(=O)c1cccc(F)c1 (stereo not given) | -2 | -0.3 | . | . | -7 | 11 |
| 47 | COC(=O)c1c(NC(=O)c2ccco2)sc(C)c1C | 10 | -0.2 | -6 | 6 | -3 | 5 |
| 48 | CCOc1ccccc1-n1nnnc1SCC(=O)N1CCCC1=O | 8 | -0.4 | . | 11 | 0 | 15 |
| 49 | Cc1cc(C(=O)OCC(=O)N2CC(C)OC(C)C2)c(C)n1-c1ccccc1 (stereo not given) | 2 | 0.9 | -17 | -17 | -8 | -3 |
| 50 | O=C(/C=C/c1cccc(Cl)c1)NNC(=O)c1ccncc1 | 1 | -0.5 | 2 | -9 | -3 | -9 |
| 51 | Cc1ccc(/C=C/C(=O)O)cc1S(=O)(=O)NCc1ccco1 | 8 | 0.4 | 6 | -2 | 0 | 0 |
| 52 | Cn1c(SCC(=O)Nc2ccccc2)nc(O)cc1=O | 1 | 0.6 | . | 14 | -3 | -8 |
| 53 | Cc1ccc(S(=O)(=O)Nc2ccncc2)c(C)c1 | 2 | 0.2 | 11 | 19 | -10 | 4 |
| 54 | O=C(O)CCn1c2ccccc2c2nc3ccccc3nc21 | -12 | -0.2 | -18 | 5 | -7 | -18 |
| 55 | COc1ccccc1CCC(=O)OCC(=O)Nc1cccc(S(=O)(=O)N2CCOCC2)c1 | 0 | 4.3 | -8 | 7 | -67 | -9 |
| 56 | O=c1[nH]n(-c2ccccn2)c(=O)c2ccccc12 | -5 | 1.2 | 3 | 9 | -1 | -8 |
| 57 | Cc1cc(C)n(CCNCc2c(C(=O)N3C[C@@H](C)O[C@@H](C)C3)nc3ccc(Cl)cn23)n1 | 37 | 0.6 | -3 | 28 | -6 | 3 |
| 58 | CCn1c(C)cc(C(=O)CSc2nnc(C3CC3)n2C2CC2)c1C | -6 | -0.8 | . | -7 | -3 | 0 |
| 59 | COc1cccc(COC(=O)C2CCN(C(=O)c3ccc(F)cc3)CC2)c1OC | 6 | -0.7 | -13 | 18 | -5 | 0 |

11 of these compounds, set out differently:
Every second line gives: Six1-Eya2 blk | TRPML1 agonist | TRPV1 PAM | TRPML1 inh | D2 PAM | CtBP-E1A blk
46: CC1(C(=O)NS(=O)(=O)c2cccc(OC(F)F)c2)CCN1C(=O)c1cccc(F)c1 (stereo not given)
  -2 | -0.3 | . | . | -7 | 11
47: COC(=O)c1c(NC(=O)c2ccco2)sc(C)c1C
  10 | -0.2 | -6 | 6 | -3 | 5
48: CCOc1ccccc1-n1nnnc1SCC(=O)N1CCCC1=O
  8 | -0.4 | . | 11 | 0 | 15
49: Cc1cc(C(=O)OCC(=O)N2CC(C)OC(C)C2)c(C)n1-c1ccccc1 (stereo not given)
  2 | 0.9 | -17 | -17 | -8 | -3
50: O=C(/C=C/c1cccc(Cl)c1)NNC(=O)c1ccncc1
  1 | -0.5 | 2 | -9 | -3 | -9
51: Cc1ccc(/C=C/C(=O)O)cc1S(=O)(=O)NCc1ccco1
  8 | 0.4 | 6 | -2 | 0 | 0
52: Cn1c(SCC(=O)Nc2ccccc2)nc(O)cc1=O
  1 | 0.6 | . | 14 | -3 | -8
53: Cc1ccc(S(=O)(=O)Nc2ccncc2)c(C)c1
  2 | 0.2 | 11 | 19 | -10 | 4
54: O=C(O)CCn1c2ccccc2c2nc3ccccc3nc21
  -12 | -0.2 | -18 | 5 | -7 | -18
55: COc1ccccc1CCC(=O)OCC(=O)Nc1cccc(S(=O)(=O)N2CCOCC2)c1
  0 | 4.3 | -8 | 7 | -67 | -9
56: O=c1[nH]n(-c2ccccn2)c(=O)c2ccccc12
  -5 | 1.2 | 3 | 9 | -1 | -8
